# RanGTP-Impb inh – inhibitors of RanGTP-importin-beta interaction, primary screen, biochemical, FRET, CFP-Ran, YFP-importin-beta, homogeneous | cell-free CFP-Ran/YFP-importin-beta FRET ratio | inhibition, % (no concentration beside the values) | hit rate 1.1% among 300,000 | AID 2216;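 active = most replicates above 15%; inconclusive = exactly half above 15%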;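 also: 0% = DMSO wells and 100% = Ran loaded with GDP instead of GTP; wells of about 40 µL received 100 nL stock; the first replicate is given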
# A1 inh – inhibitors of the anti-apoptotic protein A1, read as caspase activation. MEF A1-2A-BIM cells, Caspase-Glo 3/7 luminescence, 3 h; percent of clofoctol response, vehicle zero. caspase activation, % (test concentration not listed). hit rate 0.066% among 330,000;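 active = over half of replicate activation scores above 10%, or exactly half above 10 with the replicate mean above 10; inconclusive = replicate mean below 10 yet half the replicates above 10; inactive = over half of replicates below 10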;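 also: wells of about 30 µL received 50 nL stock; many hits fall short of the cut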
# Vif A3G – inhibitors of Vif binding to APOBEC3G peptide, primary screen, biochemical, TR-FRET, GST-Vif 1-94, biotin-A3G peptide, dose response retest (AID 1117319). hit rate 0.57% among 260,000. TR-FRET GST-Vif / biotin-A3G peptide binding; higher % means a stronger effect; test concentration not given here; strong numbers were not always called active. inhibition, %; hits with a dose series show IC50 in µM;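 active = above the screen mean plus three standard deviations and confirmed in dose response; inconclusive = results disagree or hit not tested in dose response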;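 also: Vif residues 1-94 fused to GST binding biotinylated APOBEC3G peptide 110-148; 0% = full assay without inhibitor and 100% = GST in place of GST-Vif; retest series ran down from 100 µM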
# Ecoli rRNA inh – inhibitors of bacterial rRNA selective over humanized ribosomes. GFP signal change (wild-type ribosome), % (no concentration beside the values). hit rate 1.6% among 350,000. E. coli WT GFP vs humanized-ribosome RFP mutants, fluorescence, 24 h; stronger effect = lower value; DMSO median 0, no signal -100. AID 720706;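 active = significant combined selectivity score with lowered wild-type GFP, culture density cut under 30%, mutant RFP and density less affected; inactive = any of these conditions unmet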; also: one replicate is shown; some compounds called inactive have numbers as strong as hits
# MLL AF4-AF9 inh – inhibitors of human MLL-AF4/AF9 interaction; P42568; AlphaScreen, biotin-AF4 peptide binding to FLAG-AF9; inhibition, % at 10 µM; hit rate 0.47% among 350,000; AID 651704;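 active = every replicate reaching a set inhibition limit, whatever the replicate mean, cut at about 25% in these data; inconclusive = mean inhibition reaches that limit but some replicates miss it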;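 also: 0% = plate neutral control median and 100% = total signal loss; the record names both 10 and 1 µM as test concentration; the first replicate is given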
# Target sequence (P42568 whole entry, looked up): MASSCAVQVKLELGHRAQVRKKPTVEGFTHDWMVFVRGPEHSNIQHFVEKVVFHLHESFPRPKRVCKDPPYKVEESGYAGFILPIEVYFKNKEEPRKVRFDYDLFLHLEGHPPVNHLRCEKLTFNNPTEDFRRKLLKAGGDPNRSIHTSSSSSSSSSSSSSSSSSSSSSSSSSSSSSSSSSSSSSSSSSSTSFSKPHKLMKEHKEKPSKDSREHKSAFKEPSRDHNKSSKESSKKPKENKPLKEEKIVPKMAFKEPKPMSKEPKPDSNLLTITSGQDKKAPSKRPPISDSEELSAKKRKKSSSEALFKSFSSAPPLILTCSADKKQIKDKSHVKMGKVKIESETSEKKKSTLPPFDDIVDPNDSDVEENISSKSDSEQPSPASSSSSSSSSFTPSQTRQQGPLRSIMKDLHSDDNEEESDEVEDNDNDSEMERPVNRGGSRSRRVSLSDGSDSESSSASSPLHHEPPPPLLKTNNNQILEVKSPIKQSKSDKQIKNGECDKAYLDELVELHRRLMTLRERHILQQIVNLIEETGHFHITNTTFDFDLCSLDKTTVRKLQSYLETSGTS
# Beta apoptosis – beta cell apoptosis inhibition | INS-1E cytokine-induced death, ATP luminescence, 48 h; percent of positive-control rescue, neutral wells zero | protection from apoptosis, % (concentration not given with the values) | hit rate 0.8% among 300,000 | AID 435005;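 active = all replicates at 75% or more, or half of them and the mean; inconclusive = half reach 75% but not the mean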;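 also: 0% = cytokine-treated negative control wells and 100% = positive control rescue; higher means more ATP so stronger rescue from cytokine killing; wells of about 40 µL received 100 nL stock; the first replicate is given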
# T cruzi inh – blocks replication of Trypanosoma cruzi. T. cruzi beta-gal in NIH3T3, luminescence, 90 h. hit rate 1.4% among 300,000. inhibition, % (test concentration not listed). AID 1885;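 active = mean inhibition across valid replicates above about 55%, limit read from the data; inconclusive = mean below that limit but half or more replicates reach it; inactive = mean below it, under half of replicates reach it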;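 also: signal also drops with host cell toxicity which is not excluded here; 0% = plate median of DMSO wells and 100% = zero luminescence signal; higher percent means less beta-gal luminescence so fewer parasites; stock transfer was 50 nL into about 50 µL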
# Calb FLC – C. albicans growth modulation with fluconazole | C. albicans CaCi-2 (fluconazole-resistant clinical isolate) + fluconazole, Alamar Blue growth, 48 h | growth inhibition, % (concentration not given with the values) | hit rate 0.57% among 300,000;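 active = most replicates above 75%; inconclusive = exactly half above 75%; inactive = most below 75%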;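 also: all wells also contain fluconazole at 8 µg/ml as a sub-toxic cotreatment; 0% = median of DMSO wells and 100% = median of geldanamycin control wells; wells of about 8 µL received 7.5 nL stock; the first replicate is given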
# Ecoli rRNA inh OD600 – recorded beside Ecoli rRNA inh, whose call it bears; OD600 change, %; measured here: OD600 growth;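 optical density of the mix in the first replicate; 0 = DMSO median and -100 = no signal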
# Ecoli rRNA inh RFP – also measured in Ecoli rRNA inh; calls as there; RFP signal change, %; measured here: RFP humanized mutant strains;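 first replicate; 0 = DMSO median and -100 = no signal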
# Numbers without * were called inactive; ? = inconclusive; / = not tested or not shown; & = joins results of further samples. A portion of the library; the hit share may differ from the screen's.
# The opening 2 entries as a preview:
SMILES,RanGTP-Impb inh,A1 inh,Vif A3G,Ecoli rRNA inh,Ecoli rRNA inh OD600,Ecoli rRNA inh RFP,MLL AF4-AF9 inh,Beta apoptosis,T cruzi inh,Calb FLC
CCOc1ccc(OCCOCCOc2c(Cl)cccc2Cl)cc1,2.4,-0.6,-5%,/,/,/,/,0,7,0
CCOc1ccc(C2CC(=O)NC(SCC(=O)OC)=C2C#N)cc1 (stereo not given),?,0.2,2%,-2,5,-0.3,0.5,-3,-4,-2

# The listing, previewed entries included:
SMILES,RanGTP-Impb inh,A1 inh,Vif A3G,Ecoli rRNA inh,Ecoli rRNA inh OD600,Ecoli rRNA inh RFP,MLL AF4-AF9 inh,Beta apoptosis,T cruzi inh,Calb FLC
CCOc1ccc(OCCOCCOc2c(Cl)cccc2Cl)cc1,2.4,-0.6,-5%,/,/,/,/,0,7,0
CCOc1ccc(C2CC(=O)NC(SCC(=O)OC)=C2C#N)cc1 (stereo not given),?,0.2,2%,-2,5,-0.3,0.5,-3,-4,-2
COc1cc(/C=C2\SC(N3CCCCC3)=NC2=O)cc(OC)c1OC,3.7,0.0,/,-28*,-20*,-3.8*,2.3,-7,10,12
COc1ccc(C(=O)COC(=O)c2ccc(Cl)nc2)c(OC)c1,1.6,-0.2,-1%,-9,-20,-3.4,3.1,-8,-11,6
O=S(=O)(c1ccccc1)N1CCN=C1SCc1ccc(Cl)cc1,-1.4,-0.1,-13%,-30,-44,-9.7,-5.9,0,32,-3
CCC(=O)N(Cc1cc2cc(OC)ccc2[nH]c1=O)c1ccccc1C,-0.8,1.2,-18%,/,/,/,/,2,9,3
CCCCC1=CC2=CC(=O)C(C)(OC(=O)CCc3ccccc3)C(=O)C2=CO1 (stereo not given),-18,-0.4,?,8,17,22,-2.7,-2,-13,30
Cc1csc2nc(CNC(=O)c3cccc(C(F)(F)F)c3)cn12,3.4,-0.2,3%,/,/,/,/,-8,11,-2
COC(=O)[C@@]12CCCN1[C@H](c1ccc(-c3ccc(F)cc3)c(OC)c1)[C@H]1C(=O)N(C)C(=O)[C@H]12,0.9,0.3,/,3,-6,0.4,9.9,-5,-7,6
Cc1ccc(N(CCC#N)C(=O)CSc2nc3ccccc3c(=O)[nH]2)cc1,/,-0.6,/,0,-8,-0.5,-4.9,5,/,/
COc1ccc(CCNC(=O)c2nnn(CC(=O)Nc3cccc(F)c3)c2N)cc1OC,-0.6,-1.1,-2%,3,7,1.1,-0.9,7,-14,7
O=C(CNC1CCCC1)Nc1cc(Cl)ccc1[N+](=O)[O-],-0.4,0.4,/,0,1,-1.3,5.1,-7,1,-8
COc1ccc(CCN=C(N)NS(=O)(=O)c2ccc(OC)c(OC)c2)cc1OC,7.1,0.9,-1%,8,9,-0.6,0.2,/,-2,1
CC(=O)Nc1ccc(S(=O)(=O)Oc2cccc(/C=N/N=C3/NC(=O)C(CC(=O)O)S3)c2)cc1 (stereo not given),3.1,0.0,3%,17,10,-0.1,-2.3,-2,-11,29
Cc1cccc(C)c1NC(=O)CNC(=O)c1ccc2ccccc2n1,/,-0.1,1%,9,11,3.8,-0.2,0,/,/
CC(C)N(C(=O)Cn1cc(SCC(=O)N2CCCC2)c2ccccc21)C(C)C,?,1.3,-3%,-9,0,-1.6,-7.9,9,2,-1
CC(C)c1ccc(NC(=O)Cn2c(=O)oc3cccnc32)cc1,0.4,0.0,-3%,-1,7,2.4,-1.1,3,-21,-7
c1cn(CCCNc2ncnc3sc4c(c23)CCC4)cn1,7.0,0.5,2%,/,/,/,/,-6,-2,4
CCN(c1ccccc1)c1cc(C)nc2ncnn12,-1.2,0.9,30%,-3,4,-2.3,-1.3,-3,-7,0
CC(C)CN(CCCNC(=O)CN1C(=O)CSc2ccc(S(=O)(=O)N3CCOCC3)cc21)CC(C)C,2.9,0.0,/,23,13,2.8,-3.5,-1,0,28
O=C(O)c1ccccc1NC(=O)C1CCCO1 (stereo not given),?,0.4,14%,/,/,/,/,0,-5,3
CC1CCCCN1C(=O)c1c(Cl)cnn1C (stereo not given),/,0.2,/,14,23,5.5,-1.6,-3,/,-4
COc1cccc(C2C3CN(C)CC=C3C(C#N)=C(N)C2(C#N)C#N)c1OC (stereo not given),39*,-0.8,6%,/,/,/,/,-7,11,-7
CCOC(=O)C(=CNc1cc(C)ccc1[N+](=O)[O-])C(=O)OCC,-5.2,-0.9,-6%,-7,-2,-4.7,2.5,-5,0,4
COc1ccccc1NC(=O)c1cc(Cl)ccc1NC(=O)c1ccco1,2.4,0.4,-8%,/,/,/,/,8,11,5
C=CCN(C(=O)COc1ccccc1)c1nnc(-c2ccncc2)s1,-0.8,0.1,-24%,/,/,/,/,3,-18,9
CCn1nnnc1SCC(=O)Nc1cccc(C)n1,0.1,-0.7,-3%,/,/,/,/,-7,-9,5
CCC(C)(C)NC(=O)C1CCCN1C(=O)NC1CCCCC1 (stereo not given),-5.9,0.3,-12%,9,8,-2.3,-2.4,-6,2,-22
CC(C)c1ccc(/C=C/C(=O)CCC(=O)O)cc1,7.7,1.2,-16%,-8,-7,0.9,-1.0,/,-6,25
COC(=O)c1ccc(CS(=O)(=O)c2ccccc2C)o1,2.7,2.0,0%,4,3,-2.5,/,-2,-11,-7
CCOC(=O)CNC(=O)C(NC(=O)C1CCC(C)CC1)C(C)CC (stereo not given),?,0.8,-5%,/,/,/,/,-4,-3,-10
CCOC(=O)CSc1nc(C)c2ccccc2n1,7.2,0.2,-4%,/,/,/,/,-7,0,11
CCOc1cc(/C=C(\C#N)C(N)=O)ccc1OCc1c(C)no[n+]1[O-],3.1,0.1,-4%,6,10,4.2,-0.2,-7,3,-2
COc1ccc2c(c1)sc1nc(=O)ccn12,-0.5,-0.1,/,19,11,-0.2,-7.0,/,-15,0
Cc1nn(-c2ccccc2)c(Cl)c1/C=N/NC(=O)c1cccc(S(=O)(=O)N2CCCC2)c1,-5.1,0.5,8%,9,5,3.0,-0.7,5,6,9
COc1ccc(Br)cc1CNC(=O)C1CCN(c2nnc(N3CCCC3=O)s2)CC1,-3.2,0.3,/,-4,-1,-0.5,-0.6,-4,-10,-2
O=c1oc2ccccc2cc1-c1nnc(-c2cccc(Br)c2)o1,-1.1,0.3,23%,/,/,/,/,/,-19,-15
O=C(NCCC1CCCCN1S(=O)(=O)c1ccccc1)C(=O)NCc1ccc(F)cc1 (stereo not given),-2.5,1.5,0%,-11,-20,4.2,?,/,9,10
COc1ccccc1-c1cc(C(F)(F)F)nc(S(=O)(=O)CCCC(=O)Nc2cc(C)on2)n1,0.9,-1.1,25%,/,/,/,/,7,6,-6
CC(Oc1ccccc1[N+](=O)[O-])C(=O)N/N=C/c1ccoc1 (stereo not given),5.6,1.5,/,9,0,6.6,-1.7,-5,-8,-2
Cc1cc(C)n(-c2nc(NC(C)(C)C)nc(NC(C)(C)C)n2)n1,-2.4,0.4,6%,/,/,/,/,?,-8,-1
Cn1cccc1P(=O)(c1cccn1C)c1cccn1C,-3.0,-0.1,-1%,2,3,6.6,6.3,-2,-11,?
COc1ccc(S(=O)(=O)N2CCN(S(=O)(=O)c3ccc4c(c3)OCCO4)CC2)cc1,-1.6,0.0,2%&4%,/,/,/,/,0,-9,-2
[O-]/[N+](=C\c1ccncc1)c1ccccc1,0.8,-2.7,?,/,/,/,/,/,-7,-29
COc1ccc(N2CCN(S(=O)(=O)c3ccc4c(c3)NC(=O)CC(=O)N4)CC2)cc1,-0.7,-0.4,1%,3,11,1.3,2.4,-5,-4,-4

# Full records, quoted from the list. Order of screens: RanGTP-Impb inh, A1 inh, Vif A3G, Ecoli rRNA inh, Ecoli rRNA inh OD600, Ecoli rRNA inh RFP, MLL AF4-AF9 inh, Beta apoptosis, T cruzi inh, Calb FLC
# `CCOC(=O)CSc1nc(C)c2ccccc2n1` across the screens: 7.2, 0.2, -4%, /, /, /, /, -7, 0, 11
# `COc1ccc(S(=O)(=O)N2CCN(S(=O)(=O)c3ccc4c(c3)OCCO4)CC2)cc1` across the screens: -1.6, 0.0, 2%&4%, /, /, /, /, 0, -9, -2

# Some values from the entries so far:
# Value of Cc1nn(-c2ccccc2)c(Cl)c1/C=N/NC(=O)c1cccc(S(=O)(=O)N2CCCC2)c1 in Ecoli rRNA inh: 9
# Value of COc1ccc(S(=O)(=O)N2CCN(S(=O)(=O)c3ccc4c(c3)OCCO4)CC2)cc1 in Vif A3G: 2%&4%

# (next part)
SMILES,RanGTP-Impb inh,A1 inh,Vif A3G,Ecoli rRNA inh,Ecoli rRNA inh OD600,Ecoli rRNA inh RFP,MLL AF4-AF9 inh,Beta apoptosis,T cruzi inh,Calb FLC
COc1ccc(Cn2c(SC)nc3ccccc32)cc1[N+](=O)[O-],0.2,0.4,1%,/,/,/,/,11,8,-8
O=C(NNC(=O)c1cc2cc(Br)ccc2oc1=O)c1ccc(O)cc1O,-2.5,0.4,?,/,/,/,/,5,-36,-8
COc1ccc(/C=N\NC(=O)COc2ccc(Cl)cc2Cl)c(C(=O)O)c1OC,2.5,-0.3,/,/,/,/,/,0,-8,-1
Cc1cc(C)cc(-n2nnnc2SCC(=O)N2CCOCC2)c1,-1.7,0.4,-2%,/,/,/,/,-3,-1,0
COc1cc(/C=N/NS(=O)(=O)c2ccc(C)cc2)ccc1OCc1cccc(C(=O)O)c1,-4.2,-5.9,/,-2,-4,-0.6,-7.9,-4,1,2
COc1ccc(C(=O)Nc2ccnn2C2CCN(C(=O)c3cc(C)on3)CC2)cc1,-5.3,1.7,/,10,5,1.1,-1.1,-4,-2,-16
COc1ccccc1N1CCN(C(=O)c2ccc(S(=O)(=O)N3CCCC3)cc2)CC1,0.4,0.7,?,/,/,/,/,-2,1,?
Cc1ccc(-c2cc(C(=O)N/N=C/c3cccnc3)c3ccccc3n2)cc1C,1.2,-2.1,/,8,7,-0.8,4.7,12,14,48
COc1cc(C(=O)NCCNc2nc3c(C)c(C)ccc3cc2C#N)cc(OC)c1OC,2.2,0.5,/,14,13,2.4,-1.4,-1,0,-4
Cn1c(=O)c2c(nc(N3CCCCCC3)n2Cc2cccc3ccccc23)n(C)c1=O,-4.0,-0.9,17%,/,/,/,/,19,35,5
O=C(O)CSCC(=O)NCc1c(Cl)cccc1Oc1ccccc1,-2.8,-0.7,-10%,/,/,/,-2.0,-3,7,-2
COc1ccccc1NC(=O)C/C(C)=N/NC(=O)COc1c(Br)cc(Br)cc1OC,0.2,0.8,-9%,-17,-6,4.6,-4.4,-2,-19,4
COc1ccc(OC)c2[nH]c(=O)c(CCNC(=O)COc3ccccc3)cc12,1.9,0.8,21%,/,/,/,/,-6,4,-1
CCN(CC(=O)Nc1ccc(OC)cc1)C(=O)c1oc2c(Cl)cccc2c1C,1.5,-0.7,-6%,1,4,1.5,-0.6,6,29,-6

# Assay outcomes (PubChem)
